# Biofilm kill mix: mixture kills Candida albicans biofilm cells; 0.02% of 120,000 active; C. albicans biofilm persisters + clotrimazole, fluorescence viability; primary screen in compound mixtures of four per well; inhibition, % at 7.6 µM; AID 1242;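 active means inhibition above 30.3% in the primary screen of four-compound pools, then above 30% when the compound was retested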;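 further: compounds exposed to preformed 24 h biofilms for 48 h; the number belongs to the whole pool; some results filed as inactive read as strong as hits; inactives centre near 12; 0% = biofilm with clotrimazole alone and 100% = kill control; retested singly at about 60 µM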
#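 Probe or stimulus – Clotrimazole 50 µg/mL co-treatment · System – C. albicans biofilms · Schedule – 24 h biofilm formation, then 48 h compound exposure, 37 °C · Evaluation – percent inhibition of biofilm viability · Technique – 2-h Alamar Blue fluorescence, 535/590 nm excitation/emission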
# An asterisk follows results filed as active. Only part of the results is shown; rates above refer to the full screens.
# The opening six compounds, ahead of the listing:
entry	Molecule	Biofilm kill mix
1	CCCS(=O)(=O)c1nc(S(=O)(=O)c2ccc(C)cc2)c(NCCCN(C)C)s1	7
2	Fc1ccc(Nc2c(-c3ccco3)nc3ccccn23)cc1	10
3	Cc1noc(C)c1COC(=O)c1cccnc1Cl	13
4	COc1ccc(C2NCCc3sccc32)cc1 (stereo unspecified)	7
5	Cc1noc(C)c1COC(=O)C1CCN(C(=O)c2ccc(Cl)cc2)CC1	7
6	Cc1cccc(OCC(=O)Nc2ccc(C(=O)c3ccc(C(=O)O)cc3)cc2)c1	24

# The list itself, from the first entry:
entry	Molecule	Biofilm kill mix
1	CCCS(=O)(=O)c1nc(S(=O)(=O)c2ccc(C)cc2)c(NCCCN(C)C)s1	7
2	Fc1ccc(Nc2c(-c3ccco3)nc3ccccn23)cc1	10
3	Cc1noc(C)c1COC(=O)c1cccnc1Cl	13
4	COc1ccc(C2NCCc3sccc32)cc1 (stereo unspecified)	7
5	Cc1noc(C)c1COC(=O)C1CCN(C(=O)c2ccc(Cl)cc2)CC1	7
6	Cc1cccc(OCC(=O)Nc2ccc(C(=O)c3ccc(C(=O)O)cc3)cc2)c1	24
7	CCO[C@@H]1OC(C(=O)N2CCN(Cc3ccc4c(c3)OCO4)CC2)=C[C@H](C)[C@H]1CCCO	10
8	O=C(COc1ccccc1-c1ccccc1)NCc1cccc(Cl)c1	14
9	C/C=C/C(=O)Nc1cccc(C(F)(F)F)c1	13
10	O=C1NC(=S)S/C1=C\c1ccc(SCc2ccccc2)o1	17
11	Cc1onc(-c2ccccc2Cl)c1C(=O)Nc1ncn[nH]1	10
12	CN1C=CC=C/C1=C1\SC(=S)N(N)C1=O	14
13	Cc1c(O)ccoc1=O	9
14	Cn1cc(C(=O)c2ccc(Cl)cc2Cl)cc1C(=O)N/N=C(\N)COc1ccc(Cl)cc1	8
15	O=C(O)c1cnccn1	1

# Ordered by count of non-hydrogen atoms (lowest first): some entries from above.
entry	Molecule	Biofilm kill mix
15	O=C(O)c1cnccn1	1
10	O=C1NC(=S)S/C1=C\c1ccc(SCc2ccccc2)o1	17
1	CCCS(=O)(=O)c1nc(S(=O)(=O)c2ccc(C)cc2)c(NCCCN(C)C)s1	7
6	Cc1cccc(OCC(=O)Nc2ccc(C(=O)c3ccc(C(=O)O)cc3)cc2)c1	24

# Carrying on.
entry	Molecule	Biofilm kill mix
16	Cc1cccc(NC(=O)C2CC(=O)N/C(=N/N=C/c3ccco3)S2)c1 (stereo unspecified)	12
17	COc1ccc(C(=O)NNC(=O)C(C)NC(=O)c2ccccc2NC(=O)c2ccco2)cc1 (stereo unspecified)	11
18	Cc1nc2sc(C(=O)c3ccccc3)c(N)c2c2c1CCCC2	7
19	Cc1cccn2c(CN(C)C3CCOC3)c(C(=O)N3CCCCC3)nc12 (stereo unspecified)	10
20	NC(=O)CSc1nc2ccccc2c(=O)n1Cc1ccco1	16
21	CCC(C)N(C(=O)COC(=O)C1C(C(=O)OC)=C(C)NC(C)=C1C(=O)OC)C1CCS(=O)(=O)C1 (stereo unspecified)	1
22	COc1cc(OC)c2ccc(=O)oc2c1C(CCN1CCCC(C)C1)c1ccc(N(C)C)cc1 (stereo unspecified)	13
23	CCOC(=O)C1CCCN(C(=O)/C=C/c2ccc(OC)cc2)C1 (stereo unspecified)	-2
24	CCN(CC)C(=O)CSc1nnc2nnc3cc(OC)ccc3n12	11
25	CC(C)[C@H](NC(=O)c1ccccc1)C(=O)O	6
26	c1ccc2sc(NCC3CCCO3)nc2c1 (stereo unspecified)	3
27	CN1CCC(N(C)C(=O)c2sc3cc(F)ccc3c2Cl)CC1	12
28	NS(=O)(=O)c1ccc(NC(=S)Nc2cc(Cl)c(Cl)cc2Cl)cc1	10
29	CC(=O)n1cc([C@H]2C=C(C(=O)N3CCN(Cc4ccccc4)CC3)O[C@@H](OCCCCO)C2)c2ccccc21	14
30	COc1ccc(C(C(=O)NC(C)(C)C)N(Cc2ccccc2)C(=O)CCC(=O)Nc2cc(C)on2)cc1 (stereo unspecified)	14
31	Cc1cc(C)n(-c2ccc(C(=O)OCC(=O)Nc3ccc(Cl)cc3[N+](=O)[O-])cc2)n1	12
32	CC(NCc1ccc2c(c1)OCO2)C(=O)NC1CCCCC1 (stereo unspecified)	18
33	Cc1ccc(C(=O)N/C(=C\c2ccccc2)C(=O)NCCCn2ccnc2)cc1	8
34	Cc1ccc2nc(Cl)c(/C=N/NC(=O)[C@H]3C[C@@H]3c3ccccc3)cc2c1	8
35	Fc1ccc(NC(=S)N2CCCN(c3ccc(C(F)(F)F)cn3)CC2)c(F)c1	8
36	COc1cc([N+](=O)[O-])cc(/C=N\NC(=O)C2COc3ccccc3O2)c1O (stereo unspecified)	29
37	C/C(=N\NC(=O)c1cccnc1)c1c(O)cc(C)oc1=O	17
38	CCCN(CCC)CCCNC(=O)c1nn(-c2cccc(OC)c2)c(=O)c2ccccc12	20
39	NC1=NC[C@H](Cc2ccccc2)N1CCCCC1CCCCC1	18
40	COc1ccc(N/N=C(\C#N)C(=N)N2CCOCC2)cc1	16
41	COc1ccc(C2Nc3ccccc3C(=O)N2c2ccc(F)cc2)cc1Cn1nnc2ccccc21 (stereo unspecified)	11
42	CCOC(=O)C(=Cc1c[nH]c2ccc(S(=O)(=O)N(C)C)cc12)C(=O)OCC	25
43	Oc1ccc(/C=N/Nc2nn3cnnc3c3ccccc23)cc1	14
44	CCc1ccc(N(C(=O)CNC(=O)c2ccco2)C(C(=O)NCC2CCCO2)c2ccccc2)cc1 (stereo unspecified)	15
45	CCOC(=O)Cc1nc(-c2ccccc2)n[nH]1	4
46	CC(=O)N1CC23C=CC(CC2CC12CCCCCC2)O3 (stereo unspecified)	3
47	NNC(=O)CN1C(c2ccccc2)=Nc2ccc(Br)cc2C1c1ccccc1 (stereo unspecified)	12
48	CNC(=O)CC1C(=O)N(c2ccc(Cl)cc2)C(=S)N1CCc1ccc(OC)c(OC)c1 (stereo unspecified)	-9
49	Cc1ccc(C2=NN(S(C)(=O)=O)C(c3ccc4nccnc4c3)C2)cc1 (stereo unspecified)	6
50	O=C(NC(=S)Nc1nc(-c2ccccc2)cs1)c1cccs1	10
51	CC(O)CCC(=O)NCCNC(=O)CCC(C)O (stereo unspecified)	13
52	CNC(=O)Cc1csc2ccc(C)cc12	-2
53	CCCN(CCC)S(=O)(=O)c1ccc(Cl)c(OC)c1	16
54	Cc1ccnn1CC(=O)N/N=C/c1c[nH]c2ccccc12	8
55	C=CCN(CC=C)C(=S)NC(=O)Cc1cccc2ccccc12	27
56	CCOC(=O)C1(CCOC)CCN(Cc2cnc(-c3cccc(C)c3)nc2)CC1	16
57	COc1ccc(NC(=O)/C(=C\c2cccnc2)NC(=O)c2cccs2)cc1	7
58	O=C(O)c1ccc(CNC(=O)c2ccccc2NC(=O)c2ccc([N+](=O)[O-])cc2)cc1	9
59	COc1cc(/C=C(\C#N)C(=O)c2c[nH]c3ccccc23)cc(OC)c1O	9
60	Cc1noc(C)c1COc1cccc(C(=O)OCC(=O)NCCN2C(=O)CSC2=O)c1	15
61	Cc1ccc(C2=NN=C(NC(=O)CSc3nc(C)cc(C)n3)SC2)cc1	25
62	CC(=O)C1C(c2ccccc2)c2c(noc2C)CC1(C)O (stereo unspecified)	22
63	c1ccc2c3c(c(CN4CCCCC4)cc2c1)COC3	15
64	CC1CC/C(=N/Nc2ccccc2)C(=O)N1 (stereo unspecified)	14
65	CCOC(=O)C1(Cc2cccc(OC)c2)CCCN(S(=O)(=O)c2cccnc2)C1 (stereo unspecified)	10
66	COCC(=O)Nc1ccc([N+](=O)[O-])cc1OC	13
67	O=C(NCCO)c1cc([N+](=O)[O-])cc2c1C=Cc1ccccc1O2	12
68	CCCCn1c(=S)[nH]c2ccccc2c1=O	-2
69	CCS(=O)(=O)c1ccc2c(c1)N(S(=O)(=O)c1ccc(C)cc1)CC(C(=O)O)O2 (stereo unspecified)	9
70	O=C(CCCCl)NC(=S)Nc1ccc(N2CCOCC2)cc1	15
71	Cc1c(C(=O)N2CCc3ccccc3C2)oc2ccc(S(=O)(=O)N3CC(C)CC(C)C3)cc12 (stereo unspecified)	9
72	S=C(Nc1ccc(Cl)cc1)c1nc2ccccc2[nH]1	13
73	O=C(NCc1ccccc1)/C(=C/c1ccco1)NC(=O)c1ccco1	29
74	O=C(CN1C(=O)C(=O)N(Cc2ccccc2)C1=O)Nc1ccc(F)c(Cl)c1	9
75	CCN(CC(=O)Nc1ccc(NC(C)=O)cc1)CC(=O)Nc1ccc(F)c(Cl)c1	17

# New compounds follow
entry	Molecule	Biofilm kill mix
76	COc1ccc(S(=O)(=O)NC(N)=NCCc2ccc(OC)c(OC)c2)cc1	5
77	Cc1cc(C)nc(N(C#N)Cc2cccc([N+](=O)[O-])c2)n1	14
78	O=C(COc1ccccc1)N1c2ccccc2Sc2ccccc21	1
79	Cc1nc2ccccc2nc(C)c1=NOCc1cccc(F)c1	9
80	COc1cccc(C(c2sc3nc(C)nn3c2O)N2CCC3(CC2)OCCO3)c1 (stereo unspecified)	11
81	O=C(c1ccccc1SCc1ccc(F)cc1)N1CCOCC1	7
82	CC(=O)C1=C(C)N(CC2CC2)C(=O)N[C@H]1c1ccc(Br)cc1	4
83	O=C(CN1C(=O)C2C3C=CC(C3)C2C1=O)Nc1ccc(S(=O)(=O)N2CCCCC2)cc1 (stereo unspecified)	15
84	Cc1nn(C)c(C)c1NC(=O)c1cc2nc(-c3ccco3)cc(C(F)(F)F)n2n1	3
85	Cc1ccccc1OCC(=O)Nc1nc(C)c(C(=O)N(C)C)s1	14
86	Cc1cccc(C)c1NC(=O)C(NC(=O)CN1C(=O)c2ccccc2C1=O)c1ccccc1 (stereo unspecified)	-1
87	O=C(Nc1ccc(Br)c(C(F)(F)F)c1)c1ccccc1	13
88	O=C1C=CC2C(c3ccc4c(c3)OCO4)CC1N2Cc1ccccc1 (stereo unspecified)	11
89	O=C(Cn1nc(CNc2ccc(Cl)cc2)[n+]2c1CCCCC2)c1ccc(Br)cc1	9
90	CCc1cc(C(=O)c2ccc(OC)cc2)c(NC(=O)CCC(=O)O)s1	20
91	O=C1CCCC2=C1C(c1ccccc1)CC(=O)N2c1ccc(F)cc1F (stereo unspecified)	-1
92	COc1ncccc1-c1nnn(-c2ccc(C)cc2)n1	15
93	COc1cc(C2C(C#N)=C(N)Oc3cc4c(cc32)OCO4)cc(OC)c1OC (stereo unspecified)	8
94	O=C(NCc1ccncc1)/C(=C/c1cccc([N+](=O)[O-])c1)NC(=O)c1ccccc1	13
95	CCC(C)[C@H](NC(=O)NCc1ccc(S(N)(=O)=O)cc1)C(=O)OC (stereo partly specified)	3
96	Cc1nc(NC(=O)CSc2nncs2)c(Cl)cc1Cl	15
97	CC1(C)OC(=O)N(c2ccccc2)C12C=Cc1c(ccc3ccccc13)O2 (stereo unspecified)	14
98	CCOC(=O)c1nn(-c2ccc(F)cc2)c2nc(CC(C)C)c(C#N)c(=O)n12	5
99	O=C(Nc1nnc(-c2ccco2)o1)c1ccc(Cl)cc1	2
100	COc1cc(/C=N/NC(=O)C(=O)NCc2cccnc2)cc(OC)c1OC	6
101	Nc1ccc(-n2nc(C(F)(F)F)cc2C(F)(F)F)cc1	9
102	COCc1nnc(NC(=O)c2ccccc2[N+](=O)[O-])s1	10
103	Cc1ccc(CNC(=O)COC(=O)CSc2cc(C)c(Br)cc2C)cc1	14
104	C=CCSc1nc(C)c(CCCC)c(=O)[nH]1	19
105	O=C(O)C1CCC(Cn2c(SCc3cc(=O)n4cc(Cl)ccc4n3)nc3ccsc3c2=O)CC1 (stereo unspecified)	11
106	CC(C)C(=O)NNC(=O)c1csc(CS(=O)(=O)c2ccc(Cl)cc2)n1	6
107	Cc1cc(OCCn2ccnc2)cc(C(C)C)c1	6
108	COc1cc(C2NC(=O)NC(C)=C2C(C)=O)ccc1O (stereo unspecified)	0
109	COc1ccc(C(=O)NC2CCN(C(=S)NCCc3ccccc3)CC2)cc1	-1
110	Cn1cc(CNCC2CCCO2)c(-c2ccc(Oc3ccccc3)cc2)n1 (stereo unspecified)	12
111	COc1ccc(CN=C2NN=C(c3cccc(OC)c3)CS2)cc1	3
112	Cc1cc(N2CCN(S(=O)(=O)c3ccc(Cl)c(Cl)c3)CC2)c2ccccc2n1	13
113	CC1=CSC2=NS(=O)(=O)CCN12	15
114	Cc1nn(C2CCS(=O)(=O)C2)c(Cl)c1/C=C/C(=O)OCC(=O)c1cc(C)n(-c2ccc(F)cc2)c1C (stereo unspecified)	3
115	COC(=O)CCC(=O)OC1(C)C(=O)C=C2C=C(C3CC3)N(Cc3ccc(OC)cc3)C=C2C1=O (stereo unspecified)	19
116	CCNc1nc(C(=O)O)nc(N2CCOCC2)n1	8
117	O=C(NCc1ccc(F)cc1)c1cc2sccc2n1Cc1ccc(F)cc1	6
118	COC(=O)COc1cccc2c(=O)n(CC(=O)N3CCC(C)CC3)ccc12	16
119	CC(=O)Nc1ccc(OCC(O)CN2C(C)CCCC2C)cc1 (stereo unspecified)	11
120	COc1ccc(Cl)cc1NC(=O)CN1CCCCCC1	12
121	O=C(C1=C[C@H](c2ccc(C(F)(F)F)cc2)C[C@H](OCc2ccc(CO)cc2)O1)N1CCN(Cc2ccc3c(c2)OCO3)CC1	19
122	COc1ccc(NCC(=O)N/N=C/c2ccc3c(c2)OCCO3)cc1	9
123	CC(C)(C)c1cc(C(=O)NNC(=O)c2ccc(C(F)(F)F)cc2)no1	13
124	O=C(Cn1cnc2c(nnn2Cc2ccc(F)cc2)c1=O)Nc1cccc(F)c1	17
125	CNS(=O)(=O)c1cccc(C(=O)OCC(=O)Nc2ccc(Cl)cc2F)c1	11
126	Cc1csc(NC(=O)c2cc(=O)[nH]c3ccccc23)n1	18
127	Cc1ccc(S(=O)(=O)N/N=C\c2cc3c(cc2Br)OCO3)cc1	4
128	Cc1ccc(Oc2c(C)nc(-c3ccccc3)[nH]c2=O)cc1	29

# Source: PubChem BioAssay (PCMD)
